Source: PubChem
HNF4A DNA FP = change in binding of human HNF4A to DNA, primary screen, biochemical, fluorescence polarization, FITC-DNA; activity change, % at 10 µM; 360,000 tested, 0.3% active; AID 1224865, 2016; 1 h; in the data active means activity change above about 30%, passing the limit was not always enough;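 further: controls were the assay level and a saturating level of protein; the project sought stronger binding though the title names inhibitors; some compounds called inactive have numbers as strong as hits; positive values seem to mean higher polarization but the record does not say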
Target sequence (P41235 whole entry, looked up): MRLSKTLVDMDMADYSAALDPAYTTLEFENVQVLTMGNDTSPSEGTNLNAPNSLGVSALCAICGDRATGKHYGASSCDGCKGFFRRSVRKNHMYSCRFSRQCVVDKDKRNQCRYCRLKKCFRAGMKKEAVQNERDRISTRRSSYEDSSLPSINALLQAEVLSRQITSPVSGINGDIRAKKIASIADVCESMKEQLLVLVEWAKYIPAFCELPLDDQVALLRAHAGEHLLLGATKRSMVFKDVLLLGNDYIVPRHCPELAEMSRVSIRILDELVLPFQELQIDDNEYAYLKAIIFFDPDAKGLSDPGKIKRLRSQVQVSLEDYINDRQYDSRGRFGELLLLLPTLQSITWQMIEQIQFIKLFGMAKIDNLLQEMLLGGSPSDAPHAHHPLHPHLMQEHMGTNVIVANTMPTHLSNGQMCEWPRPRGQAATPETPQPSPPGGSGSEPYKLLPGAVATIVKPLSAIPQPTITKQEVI
Beta2AR agonist = beta2AR agonists driving receptor internalization, primary screen, cell-based, FAP fluorogen, flow cytometry. Beta-2 adrenergic receptor (Homo sapiens), P07550. Am2.2-beta2AR cells; reference of the scale not given here. response, % (test concentration not listed). 340,000 tested, 0.43% active. AID 504454, 2011;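 active means response above a set limit, near 3 SD of response in nonfluorescent compounds, cut at about 42% in these data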;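 further: stock transfer was 100 nL into about 11 µL; a reference agonist was the positive control; negative values mostly stem from fluorescent compounds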
LANA-H2A inh = blockers of LANA interaction with H2A/H2B – biochemical, FP readout, HTS, primary screen | Protein LANA1 (Human herpesvirus 8 type P (isolate GK18)), Q9QR71 | cell-free LANA-H2A/H2B peptide, fluorescence polarization | inhibition, % (concentration not given with the values) | 320,000 tested, 0.6% active; in the data active means inhibition mostly above about 10%, no sharp cut-off; inactive means mostly below about 6.7%;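 further: stock transfer was 7.5 nL into about 10 µL; 0% = median of vehicle wells and 100% = median of positive control wells; one replicate is shown; the record names a cut of 25% in any replicate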
ALR inh = inhibitors of human ALR sulfhydryl oxidase, primary screen, biochemical, H2O2 detection, HRP-luminol luminescence, single point | AID 485317, 2010 | purified ALR, DTT oxidation | 290,000 tested, 3.8% active | inhibition, % (concentration not given with the values);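 active means mean and each replicate at 75% or more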;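 further: stock transfer was 7.5 nL into about 7.5 µL; 0% = neutral wells and 100% = wells with inactivated enzyme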
UCH37 DUB inh = inhibitors of human UCH37 deubiquitinase, primary screen, biochemical, Ub-AMC cleavage, fluorescence | 330,000 tested, 0.33% active | inhibition, % (test concentration not listed) | purified proteasome/UCH37 | AID 588478, 2011;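 active means mean of two replicates above 20%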;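 further: 0% = compound-free wells with enzyme and 100% = wells lacking proteasome; stock transfer was 100 nL into about 20 µL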
Target sequence (Q9Y5K5 whole entry, looked up): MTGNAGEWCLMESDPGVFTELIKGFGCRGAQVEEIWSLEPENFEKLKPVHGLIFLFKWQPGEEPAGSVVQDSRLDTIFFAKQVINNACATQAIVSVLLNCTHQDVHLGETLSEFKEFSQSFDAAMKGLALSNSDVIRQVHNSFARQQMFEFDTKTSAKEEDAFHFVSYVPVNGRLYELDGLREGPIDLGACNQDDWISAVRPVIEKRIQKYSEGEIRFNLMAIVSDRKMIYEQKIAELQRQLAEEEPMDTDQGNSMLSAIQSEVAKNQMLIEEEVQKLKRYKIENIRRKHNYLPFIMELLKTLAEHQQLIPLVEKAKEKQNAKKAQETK
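Reagent: Ub-AMC substrate; assay system: Proteasome-associated human UCH37 deubiquitinase; controls: no-proteasome and no-compound wells; read-out: % inhibition of Ub-AMC cleavage fluorescence; timing: 30 min preincubation with enzyme, 25 min cleavage at room temperature; signal: AMC fluorescence from Ub-AMC cleavage, excitation 355 nm, emission 460 nm; buffer or medium: Tris-HCl pH 7.4 plus ovalbumin, ATP-MgCl2, DTT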
E coli growth = E. coli growth inhibition, primary screen, OD600 | Escherichia coli growth, 23 h; hits give low values | OD600 absorbance (concentration not given with the values) | 330,000 tested, 0.21% active;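 active means OD600 absorbance below the run mean of sample wells minus 3.6 SD, in any replicate, cut at about 0.56 in these data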;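 further: stock transfer was 300 nL into about 60 µL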
FGF22 binding = binders of human FGF22 protein, primary screen, FGF22 synaptogenesis inhibitor project, biophysical, thermal shift, single point | recombinant FGF22 thermal shift, SYPRO orange fluorescence; percent of sucrose octasulfate shift, DMSO zero | calls only at 9.99 µM | 340,000 tested, 1.5% active | AID 651658, 2012;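 active means melting point raised past a set limit in the mean and every replicate; three in four hits are not shown here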
Target sequence (Q9HCT0 whole entry, looked up): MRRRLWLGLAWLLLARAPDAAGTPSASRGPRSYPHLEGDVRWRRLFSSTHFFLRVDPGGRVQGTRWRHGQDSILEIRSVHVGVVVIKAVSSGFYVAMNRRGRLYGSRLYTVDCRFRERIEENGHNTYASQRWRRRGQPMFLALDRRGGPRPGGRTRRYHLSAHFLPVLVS
An asterisk follows results filed as active; i = inactive; · = not tested or not shown; & = joins results of further samples. Not all compounds are listed, so the mix of outcomes need not match the whole.

SMILES	HNF4A DNA FP	Beta2AR agonist	LANA-H2A inh	ALR inh	UCH37 DUB inh	E coli growth	FGF22 binding
CC(C)COC(=O)C(C#N)c1nc2ccccc2nc1N1CCN(Cc2ccccc2)CC1 (centres undefined)	11	14	2.7	-12	0.2	0.75	·
c1ccc(-c2ncc3ccccn23)cc1	0.0	-3	3.0	-46	-52	0.65	i
O=C(COC(=O)c1ccc(F)cc1)Nc1cc(S(=O)(=O)N2CCOCC2)ccc1N1CCCC1	2.0	-2	3.1	0	5.0	0.67	i
O=C(CC(O)(c1ccccc1)C(F)(F)C(F)F)c1cccs1 (centres undefined)	-3.3	4	-0.3	-4	6.1	0.71	·
CCOc1ccccc1NC(=O)CSc1nc(=O)n(Cc2ccncc2)c2c1CCC2	-2.7	-1	6.6	·	5.6	0.69	i
CCOC(=O)C1CCN(C(c2cccnc2)c2c(NC(=O)c3ccco3)sc(C)c2C)CC1 (centres undefined)	-2.9	8	0.6	1	-9.7	0.67	·
COc1ccccc1NC(=O)Nc1nn(C)c2cccc(OC)c12	9.3	-1	1.3	·	·	·	i
CC1(C)OC(=O)C(=NNc2ccc(Cl)cc2)C(=O)O1	5.6	-3	3.2	-3	15	0.69	·
Cc1sc2nc(C)n(/N=C/c3ccccc3)c(=O)c2c1C	-7.4	-1	-0.2	-9	·	·	·
COC(=O)c1ccc(N2CCOCC2)c(NC(=O)c2cccnc2)c1	0.3	0	-1.0	3	0.3	0.7	i
COc1cc(CNCc2ccccc2)cc(Cl)c1OC	3.2	-1	3.3	-13	4.7	0.67	i
O=C(Cc1coc2ccc3ccccc3c12)NCc1cccs1	1.7	0	-1.0	-21	0.4	0.71	·
CN(C(=O)COC(=O)c1cc(Br)c(Br)s1)C1CCS(=O)(=O)C1 (centres undefined)	4.6	5	-12	-7	0.0	0.71	·
Cc1cc(=O)oc2c3c(cc(OCC(=O)N4CCC[C@H]4C(=O)O)c12)OC(C)(C)CC3	1.3	-11	1.9	-6	i	0.77	i
CN(C)c1ccc(/C=N/NC(=O)c2ccccc2O)o1	5.6	1	-2.7	-8	·	·	i
O=C(NCC1CCCO1)C1CCCCN1S(=O)(=O)c1ccc(F)cc1 (centres undefined)	-0.2	6	2.0	·	2.0	0.72	·
Cc1ccc(C2=NS(=O)(=O)N(C)C(C(=O)NCc3ccccc3)=C2)cc1	-1.4	-9	-4.2	4	6.5	0.77	i
O=C(NCc1cccnc1)c1cc(S(=O)(=O)N2CCCC2)c(Cl)cc1Cl	3.3	-23	·	·	6.0	0.7	i
COc1cc(OC)cc(C(=O)NCc2n[nH]c(=S)n2-c2ccccc2OC)c1	0.9	-1	0.8	63	1.5	0.62	·
COc1cc(C(=O)Oc2c(OC)cc(C(=S)N3CCOCC3)cc2OC)cc(OC)c1OC	0.2	4	3.7	-4	2.3	0.72	i
CC(=O)NCCc1c(C)n(Cc2ccccc2)c2ccccc12	-0.4	1	4.4	99*	4.4	0.67	i
COCCNc1nnc(SC(C)C(=O)Nc2c(C)n(C)n(-c3ccccc3)c2=O)s1 (centres undefined)	2.0	-8	-1.4	-1	0.7	0.69	i
COc1cc(OC)cc(C(=O)N2CCN(C(=O)c3ccc(-c4ccccc4)cc3)CC2)c1	2.9	4	-2.1	-38	4.9	0.7	i
CC(C)(C)C(=O)/C=c1\[nH]c(=O)/c(=C\c2ccc(C#N)cc2)s1	0.0	1	2.9	·	·	·	·
CCOc1ccc2oc(C(=O)N3CCN(c4ccccn4)CC3)c(C)c2c1	6.2	6	-3.6	-14	0.9	0.67	i
COc1ccc(/C=N/NC(=O)C2c3ccccc3-c3ccccc32)cc1	-0.5	-142	10	-4	·	·	i
Cc1cc(=O)[nH]c2ccc(S(=O)(=O)Nc3ccccc3)cc12	2.6	10	3.6	-1	0.6	0.68	i
CCN1C[C@@H]2[C@@H]3C(=O)N(Cc4ccccc4)C(=O)[C@@H]3[C@](C)(C(=O)OC)N2C1=NC1CCCCC1	2.6	8	·	·	-0.3	0.66	·
CCn1c(=O)c(C(=O)NNC(=O)c2ccccc2Br)c(O)c2ccccc21	2.0	11	27*	·	-0.7	0.63	i
CN(C)CCCNC(=O)c1cc(C(=O)Cc2ccccc2)c[nH]1	1.5	7	1.0	-19	-0.9	0.64	·
COc1sc(SC)cc1/C=N/NC(=O)c1ccncc1	0.5	-14	-2.3	12	·	·	i
O=C(Cc1ccc(Br)cc1)NC1CCN(Cc2ccccc2)CC1	1.1	-3	-1.0	1	0.6	0.7	i
CC1CCCC(NC(=O)c2cc(S(=O)(=O)N3CCOCC3)ccc2F)C1C (centres undefined)	3.6	-3	-0.5	2	0.2	0.67	i
O=S(=O)(c1ccccc1)c1ncc(C(F)(F)F)cc1O	-0.1	-1	1.1	3	-1.7	0.72	·
CCN(c1ccccc1)S(=O)(=O)c1ccc(Cl)c(NC(=O)CNCc2ccccc2OC)c1	-4.2	3	0.9	-3	-0.8	0.75	i
CCCNC(=O)NC(=O)COC(=O)c1ccc(S(=O)(=O)N(C)c2ccccc2OC)cc1	6.0	-4	-1.9	1	4.5	0.66	i
Cc1cc2c(cc1S(=O)(=O)N(C)Cc1ccccc1)n(C)c(=O)c(=O)n2C	0.2	-3	4.1	6	-3.5	0.73	i
CCSc1nnc(NC(=O)CSc2nncc(=O)n2N)s1	-3.0	17	6.0	34	5.5	0.67	i
CCOC(=O)Cn1ccc(NC(=O)c2ccc(F)cc2)n1	-0.1	11	-0.4	-3	0.1	0.67	i
CCn1c(CNC(=O)c2ccccc2Br)nnc1SCC(=O)Nc1nncs1	-2.0	8	3.5	-1	1.1	0.69	i

An excerpt of these results, bar-delimited:
SMILES | HNF4A DNA FP | Beta2AR agonist | LANA-H2A inh | ALR inh | UCH37 DUB inh | E coli growth | FGF22 binding
O=S(=O)(c1ccccc1)c1ncc(C(F)(F)F)cc1O | -0.1 | -1 | 1.1 | 3 | -1.7 | 0.72 | ·
CCN(c1ccccc1)S(=O)(=O)c1ccc(Cl)c(NC(=O)CNCc2ccccc2OC)c1 | -4.2 | 3 | 0.9 | -3 | -0.8 | 0.75 | i

Additional entries
SMILES	HNF4A DNA FP	Beta2AR agonist	LANA-H2A inh	ALR inh	UCH37 DUB inh	E coli growth	FGF22 binding
CNC(=O)c1cccn1-c1ccsc1C(=O)OC	-0.5	0	5.8	·	7.8	0.74	·
O=C(c1ccc(Cl)c(S(=O)(=O)N2CCOCC2)c1)N(Cc1ccco1)Cc1cccs1	-0.3	4	·	·	1.1	0.69	i
Cc1ccc(NC(=O)O/N=C/c2c(C)nn(C(C)(C)C)c2C)cc1Cl	-0.9	-5	3.9	-5	·	·	i
CCCn1cc(SCC(N)=O)c2ccccc21	2.8	-6	2.2	37	3.4	0.71	i
O=C(COC(=O)CNC(=O)c1ccc(-c2ccccc2)cc1)NCc1ccco1	-2.5	2	-6.8	8	2.2	0.69	i
COc1ccc(CN=Cc2c(C(=O)O)[nH]c3ccccc23)cc1	-4.5	-3	1.2	1	-17	0.68	i
COc1cccc2c1cc1c(=O)n(CC(=O)N3CCCC3)nc(C)n12	-4.3	-1	·	·	·	·	i
CC1(C(=O)CSc2nc3ccccc3[nH]2)CCC(=O)O1 (centres undefined)	0.0	-2	1.7	66	3.0	0.78	·
CCCC/C=C/C(NC(=O)c1ccc(C(=O)OC)cc1)c1ccccc1 (centres undefined)	-0.4	-4	0.5	10	-0.1	·	i
COc1ccc(NC(=O)CSc2nnc(C3CC3)n2C)cc1	1.1	-7	2.0	4	2.3	0.7	·
COC(=O)N/C(C)=C1/NC(=O)c2ccccc2C(c2ccccc2)N1 (centres undefined)	-1.2	-7	-5.7	6	-0.2	0.72	·
CN(C)C(=O)c1nc2ccc(Cl)cn2c1CN1CCN(c2ncccn2)CC1	-0.4	1	2.9	19	-1.0	0.71	i
CCc1ccccc1NC(=O)CN1C(=O)c2ccccc2S1(=O)=O	2.9	7	-1.4	11	2.4	0.69	i
CC(C)(CO)CNC(=O)CCc1nnc(-c2ccc(-c3ccccc3)cc2)o1	0.3	5	-3.7	·	-0.2	0.6	i
COc1cc2[nH]c(C(=O)N3CCN(C)CC3)cc2c(OC)c1OC	1.2	-7	1.0	-15	1.6	0.68	i
COc1cc(C(=O)Nc2nccs2)c(Br)c(OC)c1OC	3.2	11	3.3	2	0.5	0.71	·
CCOC(=O)C1=C(C)NC(=O)NC1c1cccnc1 (centres undefined)	0.3	-4	1.2	·	-0.3	0.71	·
O=C1NCCCC1C(=O)N/N=C/c1ccccc1 (centres undefined)	1.4	1	9.8	8	·	·	·
C=CCn1c(SCC(=O)N2CCOCC2)nc(O)c(Cc2ccccc2)c1=O	0.9	4	-7.1	0	0.0	0.68	·
CN1C(C(=O)Nc2ccccn2)=C(O)c2ccccc2S1(=O)=O	-3.9	-3	2.5&-0.9	-23	7.1&5.1	0.72&0.66	i
Cc1cccc2c(=O)cc(C)n(CC(N)=O)c12	-1.6	0	2.6	-8	3.5	0.63	i
CCOc1ccc(/C=N/NC(=O)c2nnn(-c3nonc3N)c2CN2CCC(C)CC2)cc1	-2.2	-6	4.0	-3	·	·	·
O=C(Cn1cnc2c(oc3ccccc32)c1=O)NCc1ccco1	-1.6	9	1.2	-4	4.7	0.7	·
CCOc1cc(C2C3=C(CCCC3=O)OC3=C2C(=O)CCC3)cc([N+](=O)[O-])c1O	-2.7	4	0.0	7	10	0.67	i

Molecules shown so far that have an aryl methoxy group:
SMILES	HNF4A DNA FP	Beta2AR agonist	LANA-H2A inh	ALR inh	UCH37 DUB inh	E coli growth	FGF22 binding
COc1ccccc1NC(=O)Nc1nn(C)c2cccc(OC)c12	9.3	-1	1.3	·	·	·	i
COc1cc(CNCc2ccccc2)cc(Cl)c1OC	3.2	-1	3.3	-13	4.7	0.67	i
COc1cc(OC)cc(C(=O)NCc2n[nH]c(=S)n2-c2ccccc2OC)c1	0.9	-1	0.8	63	1.5	0.62	·
COc1cc(C(=O)Oc2c(OC)cc(C(=S)N3CCOCC3)cc2OC)cc(OC)c1OC	0.2	4	3.7	-4	2.3	0.72	i
COc1cc(OC)cc(C(=O)N2CCN(C(=O)c3ccc(-c4ccccc4)cc3)CC2)c1	2.9	4	-2.1	-38	4.9	0.7	i
COc1ccc(/C=N/NC(=O)C2c3ccccc3-c3ccccc32)cc1	-0.5	-142	10	-4	·	·	i
COc1sc(SC)cc1/C=N/NC(=O)c1ccncc1	0.5	-14	-2.3	12	·	·	i
CCN(c1ccccc1)S(=O)(=O)c1ccc(Cl)c(NC(=O)CNCc2ccccc2OC)c1	-4.2	3	0.9	-3	-0.8	0.75	i
CCCNC(=O)NC(=O)COC(=O)c1ccc(S(=O)(=O)N(C)c2ccccc2OC)cc1	6.0	-4	-1.9	1	4.5	0.66	i
COc1ccc(CN=Cc2c(C(=O)O)[nH]c3ccccc23)cc1	-4.5	-3	1.2	1	-17	0.68	i
COc1cccc2c1cc1c(=O)n(CC(=O)N3CCCC3)nc(C)n12	-4.3	-1	·	·	·	·	i
COc1ccc(NC(=O)CSc2nnc(C3CC3)n2C)cc1	1.1	-7	2.0	4	2.3	0.7	·
COc1cc2[nH]c(C(=O)N3CCN(C)CC3)cc2c(OC)c1OC	1.2	-7	1.0	-15	1.6	0.68	i
COc1cc(C(=O)Nc2nccs2)c(Br)c(OC)c1OC	3.2	11	3.3	2	0.5	0.71	·
